Assay outcomes from PubChem BioAssay.
NS1 inh: blocks influenza NS1 protein function; S. cerevisiae slowed by influenza A NS1, growth recovery by OD600; Potency, µM (doses to about 46.1 µM), without a hit: top-dose activity, positive = more growth; 0.4% of 270,000 active; active means well fitted rising curve with a large enough effect; inconclusive means small, poorly fitted or top-dose-only effect; inactive means no such curve, though single readings can be large or run the other way; further: nearly all actives have a fitted effect of over 50% in size
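Recovery from NS1-induced slow growth read by OD600 in budding yeast switched to galactose assay medium (pH 6.0, -URA) at 1:100 dilution. Compound 23 nl per well; the matching strain lacking NS1 serves as control.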
SARS PLpro yeast: blocks SARS-CoV papain-like protease in a yeast assay | S. cerevisiae expressing SARS-CoV PLpro, growth rescue; control for the full effect not named in the record | AID 485353 | Potency, µM (series often up to 32.9 µM), without a hit: at the highest dose activity, positive = growth rescue | 0.19% of 330,000 active; active means well fitted rising curve with a large enough effect; inconclusive means small, poorly fitted or top-dose-only effect; inactive means no such curve, though single readings can be large or run the other way; further: 0% is about no effect; nearly all actives have a fitted effect of over 55% in size; growth read by luminescence after 48 h
MARV entry inh: inhibitors of Marburg virus binding or cell entry | AID 540276 | 1.8% of 300,000 active | Marburg virus pseudotyped entry inhibition, cell reporter; control for the full effect not named in the record; about a third of the inactives were read at about 46 µM | Potency, µM (doses to about 37.8 µM), for inactives: at the top dose activity change, negative = inhibition, most hits filed as inhibitors; active = well fitted inhibition curve with a large enough effect; inconclusive = small, poorly fitted or top-dose-only effect, or effect the other way; inactive = flat fitted curve, though single readings scatter; tested in HEK293 cells; about a fifth of its hits are not listed in these tables; further: on the % scale 0 is the no-effect control and ±100 the full control effect; luciferase read-out
StopGo reporter: lowers the luciferase signal of an FMDV 2A StopGo reporter. human cells with a luciferase reporter of 2A StopGo recoding; control for the full effect not named in the record. Potency, µM (highest dose often 57.9 µM), for the others: top-dose signal change, negative = less light. 1.2% of 410,000 active. AID 1159524; active = well fitted falling curve with a large enough effect; inconclusive = small, poorly fitted or top-dose-only effect; inactive = no such curve, though single readings can be large or run the other way; tested in HEK293T cells; further: on the % scale 0 is the no-effect control and ±100 the full control effect; nearly all actives have a fitted effect of over 45% in size; luciferase light after 4 h
LASV entry inh: inhibitors of Lassa virus binding or cell entry | Potency, µM (series often up to 37.9 µM), for inactives: at the highest dose activity change, negative = inhibition, most hits filed as inhibitors | 1.2% of 300,000 active | Lassa virus pseudotype entry inhibition, cell reporter; control for the full effect not named in the record; active means well fitted inhibition curve with a large enough effect; inconclusive means small, poorly fitted or top-dose-only effect, or effect the other way; inactive means flat fitted curve, though single readings scatter; tested in HEK293 cells; further: on the % scale 0 is the no-effect control and ±100 the full control effect; nearly all actives have a fitted effect of over 50% in size; luciferase read-out
Cruzain Triton: blocks cruzain activity in presence of Triton detergent. 0.43% of 200,000 active. purified cruzain, Z-FR-AMC fluorescence, 0.01% Triton. P25779. Potency, µM, for the others: max response, negative = inhibition, most hits filed as inhibitors;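 further: plate controls were neutral wells for no effect and buffer without enzyme for full effect; nearly all actives have a fitted effect of over 40% in size; top concentration of the series not given in the record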
Target sequence (P25779 123-467 limits assumed): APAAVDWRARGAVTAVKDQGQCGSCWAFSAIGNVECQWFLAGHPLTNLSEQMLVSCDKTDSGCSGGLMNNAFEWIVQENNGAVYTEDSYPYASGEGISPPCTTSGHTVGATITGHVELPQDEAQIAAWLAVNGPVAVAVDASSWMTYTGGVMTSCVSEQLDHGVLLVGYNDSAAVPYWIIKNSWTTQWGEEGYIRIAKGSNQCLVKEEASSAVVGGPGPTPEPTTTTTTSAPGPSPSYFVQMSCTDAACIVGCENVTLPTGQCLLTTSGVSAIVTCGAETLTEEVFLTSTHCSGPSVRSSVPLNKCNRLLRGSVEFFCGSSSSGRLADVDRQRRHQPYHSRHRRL
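Purified cruzain (1.5 nM final) was preincubated with compounds for 15 min at room temperature in 100 mM sodium acetate pH 5.5, 5 mM DTT, 0.01% Triton X-100. Reaction started with 2 uM Z-FR-AMC; AMC fluorescence change over 60 s gave activity.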
RE007 growth inh: less growth of the S. pombe RE007 Vpr strain | S. pombe RE007 Vpr strain, BacTiter-Glo ATP luminescence, 24 h; control for the full effect not named in the record | Potency, µM (series often up to 92.2 µM), for inactives: top-dose activity change, negative = less growth | 0.21% of 360,000 active | AID 651644; active = well fitted falling curve with a large enough effect; inconclusive = small, poorly fitted or top-dose-only effect; inactive = no such curve, though single readings can be large or run the other way;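 further: on the % scale 0 is the no-effect control and ±100 the full control effect; nearly all actives have a fitted effect of over 50% in size; the assay follows cell death caused by Vpr and the record does not say whether a fall means rescue or toxicity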
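Fission yeast strain RE007, carrying one chromosomally integrated HIV-1 vpr copy, was seeded at OD 0.01 in PMG+AL medium with 23 nL pinned compound. After 24 h at 30 °C and 99% humidity, viability was read by BacTiter-Glo luminescence.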
Cruzain noTriton: blocks cruzain activity in detergent-free assay. P25779. purified cruzain, Z-FR-AMC fluorescence, no detergent. Potency, µM, without a hit: max response, negative = inhibition, actives largely listed as inhibitors. 2.3% of 200,000 active;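 further: plate controls were enzyme without inhibitor for no effect and buffer without enzyme for full effect; nearly all actives have a fitted effect of over 40% in size; top concentration of the series not given in the record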
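Purified cruzain at 1.5 nM, pre-incubated 15 min with compound at room temperature in 100 mM sodium acetate pH 5.5, 5 mM DTT, 0.00005% Triton X-100. Reaction started with 2 uM Z-FR-AMC; AMC fluorescence increase over 60 s gives rate.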
Numbers without * were called inactive; [ ] = dose if it differs, or a comment. Unless noted, the call rests on the fitted dose curve; in most records, active means well fitted curve in the direction sought with a large enough effect; inconclusive means small, poorly fitted or top-dose-only effect, or another doubt; inactive means no such curve, though single readings can be large; an effect the other way counts as inactive or inconclusive. Potency means the concentration at half of the fitted maximal effect.

What do the screens show for `c1ccc(Nc2nc(N3CCNCC3)nc(N3CCOCC3)n2)cc1`?
NS1 inh: 5%; SARS PLpro yeast: 12%; MARV entry inh: 11µM*; StopGo reporter: -14%; LASV entry inh: 8.9µM*; Cruzain Triton: -3.3%; RE007 growth inh: -18%; Cruzain noTriton: 10%

What do the screens show for `COc1ccc(-c2cc(=O)[nH]c(N3CCN(Cc4ccccc4)CC3)n2)cc1`?
NS1 inh: -1%; SARS PLpro yeast: 2%; MARV entry inh: 9%; StopGo reporter: -12%; LASV entry inh: inconclusive; RE007 growth inh: 1%

How did O=C(NCc1ccccc1)c1cnsn1 do in these assays?
NS1 inh: -2%; SARS PLpro yeast: 0%; MARV entry inh: -2%; StopGo reporter: -4%; LASV entry inh: 0%; Cruzain Triton: 4.5%; RE007 growth inh: -1%; Cruzain noTriton: -4%

Results for Cc1ccc(C2CC(c3cccs3)=NN2C(=O)CSc2nc(=O)n3cc(C)ccc3n2)cc1 (stereo not drawn) ?
SARS PLpro yeast: -2%; MARV entry inh: -33%; StopGo reporter: -9%; LASV entry inh: -7%; RE007 growth inh: 12%

How did Cc1nc(-c2ccc(Cl)cc2)sc1CCNC(=O)Cc1ccc(F)cc1 do in these assays?
StopGo reporter: -17%; LASV entry inh: inconclusive; Cruzain Triton: -8.0%; Cruzain noTriton: inconclusive

Results for CC(C)(Oc1ccc(Br)cc1Cl)C(=O)Nc1ccon1 ?
NS1 inh: -44%; SARS PLpro yeast: -9%; MARV entry inh: -1%; StopGo reporter: inconclusive; LASV entry inh: inconclusive; RE007 growth inh: -22%

How did Oc1ccc2ccccc2c1C=Nc1ccc(N2CCOCC2)cc1 do in these assays?
NS1 inh: 12%; SARS PLpro yeast: -10%; MARV entry inh: inconclusive; StopGo reporter: 2%; LASV entry inh: -13%; Cruzain Triton: -15%; RE007 growth inh: -22%; Cruzain noTriton: inconclusive

Results for Cc1cc(C)nc(NS(=O)(=O)c2ccc(NC(=O)c3ccc4c(c3)OCO4)cc2)n1 ?
NS1 inh: -1%; SARS PLpro yeast: 7%; MARV entry inh: 10%; StopGo reporter: 35%[activator]; LASV entry inh: -2%; Cruzain Triton: -1.8%; RE007 growth inh: 10%; Cruzain noTriton: 0%

How did CC(=O)c1ccc(NC(=O)c2cccc(N3C(=O)c4ccccc4C3=O)c2)cc1 do in these assays?
NS1 inh: 5%; SARS PLpro yeast: -1%; MARV entry inh: 21%; StopGo reporter: -8%; LASV entry inh: 7%; RE007 growth inh: 3%

How did Cc1ccc(CCNC(=O)c2ccc(NC(=O)N3CC(C)Sc4ccccc43)cc2)cc1 (stereo not drawn) do in these assays?
MARV entry inh: -1%[46.1 µM]; StopGo reporter: -9%; LASV entry inh: inconclusive; Cruzain Triton: -0.4%; Cruzain noTriton: 0%

Results for C=CCn1c(SCC(=O)c2cccs2)nc2sc(CC)cc2c1=O ?
NS1 inh: -4%; SARS PLpro yeast: 0%; MARV entry inh: inconclusive; StopGo reporter: 20µM*; LASV entry inh: inconclusive; Cruzain Triton: -2.6%; RE007 growth inh: -8%[3.69 µM]; Cruzain noTriton: -8%

What do the screens show for `COc1ccc(Cl)cc1NC(=O)CCc1ccccc1`?
NS1 inh: -18%; SARS PLpro yeast: -7%; MARV entry inh: -23%; StopGo reporter: -10%; LASV entry inh: 9%; Cruzain Triton: -6.4%; RE007 growth inh: -17%; Cruzain noTriton: -5%

What do the screens show for `CCNC(=S)Nc1cc(C(=O)N2CCCC2)ccc1N1CCCC1`?
SARS PLpro yeast: -1%; MARV entry inh: -13%[46.1 µM]; StopGo reporter: -4%; LASV entry inh: -5%[46.1 µM]; RE007 growth inh: 4%

How did O=C(Nc1ccc2snnc2c1)N1CCCCC1 do in these assays?
NS1 inh: 4%; SARS PLpro yeast: 0%; MARV entry inh: 29%[46.1 µM]; StopGo reporter: 17%; LASV entry inh: 2%; RE007 growth inh: 6%

How did CCN1C(=O)C2(C(C(=O)c3cc4ccccc4o3)=C(O)C(=O)N2CCCN2CCOCC2)c2ccccc21 (stereo not drawn) do in these assays?
NS1 inh: 2%; SARS PLpro yeast: 3%; MARV entry inh: -13%; StopGo reporter: -2%; LASV entry inh: 13%; RE007 growth inh: -16%

Results for Cc1ccc(NC(=O)C2CCC(CNC(=O)[C@@H]3Cc4ccccc4CN3)CC2)cc1 (stereo partly drawn) ?
NS1 inh: -2%; SARS PLpro yeast: -6%; StopGo reporter: -7%; RE007 growth inh: 20%

How did Cn1nc(CC(=O)NCc2ccc(F)cc2)c2ccccc2c1=O do in these assays?
NS1 inh: -5%; SARS PLpro yeast: 1%; StopGo reporter: inconclusive; Cruzain Triton: 4.8%; RE007 growth inh: -4%; Cruzain noTriton: 2%

What do the screens show for `O=C(CCCc1ccccc1)NCCN1CCOCC1`?
NS1 inh: 6%; SARS PLpro yeast: 8%; MARV entry inh: 24%; StopGo reporter: 16%; LASV entry inh: 2%; Cruzain Triton: 2.4%; RE007 growth inh: 26%; Cruzain noTriton: -2%

How did CCOC(=O)Cn1cc(C=O)c2ccccc21 do in these assays?
NS1 inh: 12%; SARS PLpro yeast: -3%; MARV entry inh: -3%; StopGo reporter: -9%; LASV entry inh: 1%; Cruzain Triton: 5.2%; RE007 growth inh: -13%[3.69 µM]; Cruzain noTriton: -1%

How did CCC(Sc1nnc(-c2ccc(C)c(Cl)c2)n1CC)C(=O)Nc1nccs1 (stereo not drawn) do in these assays?
NS1 inh: -76%; SARS PLpro yeast: -2%; MARV entry inh: inconclusive; StopGo reporter: 22µM*; LASV entry inh: inconclusive; Cruzain Triton: -4.3%; RE007 growth inh: 29%; Cruzain noTriton: -3%

How did CN1CCN(c2nc3c(c(=O)n(C)c(=O)n3C)n2Cc2ccccc2)CC1 do in these assays?
NS1 inh: 4%; SARS PLpro yeast: 3%; StopGo reporter: -15%; RE007 growth inh: 6%

How did COc1ccc(-n2ccn(CC(=O)Nc3ccccc3OC)c(=O)c2=O)cc1 do in these assays?
NS1 inh: 7%; SARS PLpro yeast: -11%; StopGo reporter: -11%; RE007 growth inh: 12%

How did CC(=O)c1cccc(S(=O)(=O)N(C)C2CCN(C)CC2)c1 do in these assays?
NS1 inh: -6%; SARS PLpro yeast: 0%; MARV entry inh: 2%[46.1 µM]; StopGo reporter: -7%; LASV entry inh: -1%[46.1 µM]; RE007 growth inh: 7%

How did Cc1ccc(S(=O)(=O)n2cnc3cc([N+](=O)[O-])ccc32)c(C)c1 do in these assays?
NS1 inh: 15%; SARS PLpro yeast: 7%; MARV entry inh: 0%; StopGo reporter: 3%; LASV entry inh: 6%; Cruzain Triton: -2.4%; RE007 growth inh: -10%; Cruzain noTriton: 10%

Results for CC1CC(C)CN(C(=O)CNC(=O)Cn2ccc3ccccc3c2=O)C1 (stereo not drawn) ?
SARS PLpro yeast: 3%; MARV entry inh: inconclusive; StopGo reporter: 5%; LASV entry inh: 5%[46.1 µM]; RE007 growth inh: 3%

Results for COc1ccccc1CNC(=O)c1ccc(S(=O)(=O)N(C)C)cc1 ?
NS1 inh: -12%; SARS PLpro yeast: -1%; MARV entry inh: 10%; StopGo reporter: 10%; LASV entry inh: -28%; Cruzain Triton: -5.6%; RE007 growth inh: 5%; Cruzain noTriton: 7%

How did COc1cc(NC(=S)NC2CC(C)(C)NC(C)(C)C2)c(OC)cc1Cl do in these assays?
NS1 inh: -3%; SARS PLpro yeast: 0%; StopGo reporter: -22%; RE007 growth inh: -1%

Results for CCNC(=O)c1cc2n(n1)CCCN(Cc1ccc(C)cc1)C2=O ?
StopGo reporter: -9%; LASV entry inh: 13%[46.1 µM]; Cruzain Triton: 0.2%; Cruzain noTriton: 5%

Results for Cc1cc(C)n(C(=O)C(C)N2C(=O)c3ccccc3C2=O)n1 (stereo not drawn) ?
NS1 inh: 4%; SARS PLpro yeast: 8%; MARV entry inh: -15%; StopGo reporter: -5%; LASV entry inh: -10%; Cruzain Triton: 2.8%; RE007 growth inh: -3%; Cruzain noTriton: 0%

Results for CC1(C)NC(=O)N(CC(=O)Nc2cc(C(F)(F)F)cc(C(F)(F)F)c2)C1=O ?
NS1 inh: 18%; SARS PLpro yeast: 7%; StopGo reporter: -5%; RE007 growth inh: 5%

How did O=C(CSc1ccc(Cl)cc1)Nc1ccccc1Oc1ccccc1 do in these assays?
NS1 inh: 1%; SARS PLpro yeast: 14%; MARV entry inh: 6%; StopGo reporter: inconclusive; LASV entry inh: 11%; Cruzain Triton: -9.1%; RE007 growth inh: 10%; Cruzain noTriton: -3%

How did Cc1cc2cc(CNC(=O)NC3CCCCC3)ccc2[nH]1 do in these assays?
NS1 inh: inconclusive; SARS PLpro yeast: 0%; MARV entry inh: 29%; LASV entry inh: 23%; Cruzain Triton: -2.9%; RE007 growth inh: -5%; Cruzain noTriton: inconclusive

Results for O=C(NCc1ccccc1)C1CCN(c2nc(-c3ccccc3)nc3c2CCC3)CC1 ?
NS1 inh: -58%; SARS PLpro yeast: -2%; MARV entry inh: -20%; StopGo reporter: inconclusive; LASV entry inh: inconclusive; RE007 growth inh: -19%

How did Cc1ccccc1N1C(=O)CC1(C#N)c1ccc(OCc2ccccc2)cc1 (stereo not drawn) do in these assays?
NS1 inh: -34%; SARS PLpro yeast: -7%; MARV entry inh: inconclusive; StopGo reporter: -8%; LASV entry inh: 10µM*; Cruzain Triton: -1.6%; RE007 growth inh: 2%; Cruzain noTriton: inconclusive

Results for COC(=O)c1c(NC(=S)Nc2ccc(F)cc2[N+](=O)[O-])sc2c1CCCCC2 ?
NS1 inh: 6%; SARS PLpro yeast: -3%; MARV entry inh: -1%; StopGo reporter: -17%; LASV entry inh: -10%; Cruzain Triton: -26%; RE007 growth inh: -9%; Cruzain noTriton: inconclusive
